Screening data from PubChem BioAssay.
HNF4A DNA FP – change in binding of human HNF4 alpha to DNA | 0.3% of 360,000 active | activity change, % at 10 µM | P41235 | HNF4a-FITC DNA binding, fluorescence polarization, 1 h | AID 1224865; in the data active = activity change above about 30%, passing the limit was not always enough;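 note: controls were the assay level and a saturating level of protein; the project sought stronger binding though the title names inhibitors; some compounds called inactive have numbers as strong as hits; positive values seem to mean higher polarization but the record does not say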
B2AR ag – agonists of human beta-2 adrenergic receptor inducing internalization; Am2.2-beta2AR cells, FAP receptor internalization, flow cytometry; reference of the scale not given here; response, % (no concentration beside the values); AID 504454; 0.43% of 340,000 active; P07550;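 active = response above a set limit, near 3 SD of response in nonfluorescent compounds, cut at about 42% in these data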;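 note: stock transfer was 100 nL into about 11 µL; a reference agonist was the positive control; negative values mostly stem from fluorescent compounds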
Target sequence (P07550 whole entry, looked up): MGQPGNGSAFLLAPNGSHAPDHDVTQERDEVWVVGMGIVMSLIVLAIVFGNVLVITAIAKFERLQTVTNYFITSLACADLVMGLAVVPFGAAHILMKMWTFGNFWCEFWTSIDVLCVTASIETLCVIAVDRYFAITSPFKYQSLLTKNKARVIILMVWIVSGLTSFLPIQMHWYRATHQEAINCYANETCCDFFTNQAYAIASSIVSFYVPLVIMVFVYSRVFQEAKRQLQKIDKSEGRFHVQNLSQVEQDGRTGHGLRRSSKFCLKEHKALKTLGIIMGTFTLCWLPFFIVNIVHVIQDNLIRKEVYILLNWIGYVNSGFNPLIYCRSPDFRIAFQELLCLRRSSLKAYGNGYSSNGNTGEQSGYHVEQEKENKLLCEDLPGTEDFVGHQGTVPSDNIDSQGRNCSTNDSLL
rRNA inh HTS – selective bacterial rRNA inhibition in E. coli; E. coli WT GFP vs humanized-ribosome RFP mutants, fluorescence, 24 h; active compounds read low; DMSO median 0, no signal -100; GFP signal change (wild-type ribosome), % (test concentration not listed); 1.6% of 350,000 active; AID 720706;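 active = significant combined selectivity score with lowered wild-type GFP, culture density cut under 30%, mutant RFP and density less affected; inactive = any of these conditions unmet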; note: one replicate is shown; some compounds called inactive have numbers as strong as hits
Ecoli growth – blocks Escherichia coli growth | OD600, 23 h; active compounds read low | OD600 absorbance (no concentration beside the values) | 0.21% of 330,000 active | AID 1053175;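 active = OD600 absorbance below the run mean of sample wells minus 3.6 SD, in any replicate, cut at about 0.56 in these data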;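 note: stock transfer was 300 nL into about 60 µL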
ALR H2O2 inh – human ALR oxidase inhibition via reduced H2O2; P55789; purified ALR, DTT oxidation, H2O2 HRP-luminol luminescence; inhibition, % (concentration not given with the values); 3.8% of 290,000 active; AID 485317;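 active = mean and each replicate at 75% or more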;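 note: stock transfer was 7.5 nL into about 7.5 µL; 0% = neutral wells and 100% = wells with inactivated enzyme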
FGF22 binding – shifts melting point of recombinant human FGF22. Q9HCT0. recombinant FGF22 thermal shift, SYPRO orange fluorescence; percent of sucrose octasulfate shift, DMSO zero. calls only at 9.99 µM. 1.5% of 340,000 active;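 active = melting point raised past a set limit in the mean and every replicate; three in four hits are not shown here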
Target sequence (Q9HCT0 whole entry, looked up): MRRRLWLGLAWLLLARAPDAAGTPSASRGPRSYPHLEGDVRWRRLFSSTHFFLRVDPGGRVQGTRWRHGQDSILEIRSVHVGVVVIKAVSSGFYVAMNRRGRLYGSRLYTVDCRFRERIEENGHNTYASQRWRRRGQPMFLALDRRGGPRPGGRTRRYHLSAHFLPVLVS
UCH37 inh – human UCH37 deubiquitinating enzyme inhibition; Q9Y5K5; purified proteasome/UCH37, Ub-AMC cleavage fluorescence; inhibition, % (test concentration not listed); 0.33% of 330,000 active; AID 588478;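 active = mean of two replicates above 20%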;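 note: 0% = compound-free wells with enzyme and 100% = wells lacking proteasome; stock transfer was 100 nL into about 20 µL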
Target sequence (Q9Y5K5 whole entry, looked up): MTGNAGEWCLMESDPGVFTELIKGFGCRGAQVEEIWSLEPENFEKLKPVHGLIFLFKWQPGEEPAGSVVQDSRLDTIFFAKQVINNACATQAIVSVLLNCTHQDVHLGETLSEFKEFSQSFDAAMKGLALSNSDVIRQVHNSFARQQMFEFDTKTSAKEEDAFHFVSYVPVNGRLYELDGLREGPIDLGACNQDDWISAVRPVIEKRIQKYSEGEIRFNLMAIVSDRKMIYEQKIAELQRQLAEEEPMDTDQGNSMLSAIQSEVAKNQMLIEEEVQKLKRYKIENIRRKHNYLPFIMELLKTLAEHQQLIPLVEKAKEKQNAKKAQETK
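Schedule: 30 min plus 25 min, room temperature / Material: human UCH37 within purified proteasomes / Technique: AMC fluorescence intensity at 355/460 nm / Buffer or medium: pH 7.4 Tris-HCl (50 mM) with ovalbumin, ATP-MgCl2, DTT / Controls: wells without proteasome as full block, compound-free enzyme plus substrate as uninhibited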
rRNA inh HTS OD600 – further read-out of rRNA inh HTS, marked with its call; OD600 change, %; measured here: OD600 growth;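 optical density of the mix in the first replicate; 0 = DMSO median and -100 = no signal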
rRNA inh HTS RFP – recorded beside rRNA inh HTS, whose call it bears; RFP signal change, %; measured here: RFP humanized mutant strains;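 first replicate; 0 = DMSO median and -100 = no signal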
* hit, by the source's call; i = inactive; . = no result given.

SMILES | HNF4A DNA FP | B2AR ag | rRNA inh HTS | rRNA inh HTS OD600 | rRNA inh HTS RFP | Ecoli growth | ALR H2O2 inh | FGF22 binding | UCH37 inh
Cc1c(C(=O)Nc2ccc3c4c(cccc24)CC3)cccc1[N+](=O)[O-] | 1.3 | -8 | 13 | 13 | -0.3 | 0.73 | -18 | i | -1.3
COc1ccccc1CNc1nc(SC)ncc1CO | -1.4 | -6 | -15 | -17 | 1.8 | 0.67 | -10 | i | 0.0
Cc1cc(C)c(C)c(S(=O)(=O)Nc2ccc(C(N)=O)cc2)c1C | 3.0 | -5 | -11 | -15 | -2.9 | 0.7 | -3 | i | 0.8
O=C(O)c1ccc(N=NNc2cccc([N+](=O)[O-])c2)cc1 | -1.1 | 13 | -5 | 1 | -3.5 | 0.69 | . | i | 15
C=CCNC(=O)/C(=C/c1ccc(Br)cc1)NC(=O)c1ccccc1OC | -2.3 | -14 | -8 | -11 | -3.3 | 0.7 | -13 | i | 1.1
CCOc1ccc(NC(=O)CSc2nc3nc4c(cc3c(=O)n2CC)COC(C)(C)C4)cc1 | . | . | 5 | 6 | -0.6 | 0.67 | -8 | . | 1.4
Cc1cccc(C)c1NS(=O)(=O)c1c(C(=O)N2CCCCC2)c(C)n(C)c1C | -3.2 | 2 | 3 | -2 | 2.9 | 0.67 | -2 | i | 4.1
CCc1ccc(NC(=O)C2CCCN(S(=O)(=O)c3cnc[nH]3)C2)cc1 (configuration not stated) | -0.2 | 1 | . | . | . | 0.74 | 0 | . | 5.6
Cn1cccc1C(=O)NNC(=O)c1ccccc1Br | 0.5 | 5 | 11 | 19 | -0.4 | 0.67 | -31 | i | -0.1
O=C(Nc1ccc(Br)cc1)N1CCCC(O)C1 (configuration not stated) | 3.4 | 0 | -4 | -8 | -6.3 | 0.62 | -13 | i | -2.2
Cc1ccc(C)c(NC(=O)c2ccc3ccccc3n2)c1 | 3.8 | 0 | . | . | . | 0.73 | -8 | . | 3.4
CC(=O)Nc1ccc(S(=O)(=O)N2CCN(c3ccc(C)c(Cl)c3)CC2)cc1 | 0.2 | 2 | -1 | -7 | -3.3 | 0.66 | -50 | i | 1.3
COc1ccc(-c2coc3c(C(=O)NCCN(C)C)cccc23)c(C)c1 | -1.6 | . | 2 | -8 | 12 | . | . | i | .
Cc1nc(NC(=O)c2c(-c3ccccc3Cl)noc2C)sc1C | 2.5 | 3 | 8 | 7 | 4.8 | 0.7 | 4 | i | 3.5
CNc1cnc(-c2ccccc2OC)cn1 | 0.1 | . | 4 | 16 | -2.0 | . | . | i | .
O=c1c2[nH]c3ccccc3c2ncn1CCN1CCNCC1 | -1.1 | -13 | . | . | . | 0.66 | . | . | -4.6
CC(C)CNC(=O)C1CCN(c2ccc(S(=O)(=O)N3CCOCC3)cc2)CC1 | 3.5 | -1 | . | . | . | 0.67 | . | . | 3.5
COc1ccc(OC)c(S(=O)(=O)NCc2cn3cccc(C)c3n2)c1 | 1.9 | 5 | 18 | 13 | 0.9 | 0.66 | -9 | . | 0.8
COc1ccc(NC(=O)COC(=O)c2cccn2C)cc1S(=O)(=O)N1CCCCC1 | -2.9 | 2 | -7 | -11 | 1.0 | 0.64 | -5 | i | 2.5
Cn1cccc1Cc1nnc(SCC(=O)NCC2CCCO2)n1-c1ccc(F)cc1 (configuration not stated) | 1.2 | 3 | 12 | 11 | 0.1 | 0.78 | 24 | . | 1.8
Cc1nn(C)cc1S(=O)(=O)NC1CCCC1 | 1.2 | 1 | 13 | 7 | 1.9 | 0.69 | -10 | i | 3.2
COc1ccccc1N(CCN1C(=O)c2cccc3cccc(c23)C1=O)C(=O)c1ccncc1 | . | . | . | . | . | 0.7 | -7 | . | 3.3
O=C(Nc1ccc2c(c1)OCO2)c1c(F)cccc1F | 1.5 | 8 | . | . | . | 0.65 | -10 | . | -0.2
Cc1onc(-c2c(F)cccc2Cl)c1C(=O)N1CCCCC1 | -0.7 | 8 | . | . | . | 0.74 | -5 | i | 1.3
CN(C(=O)CSc1ncn[nH]1)C1(C#N)CCCCC1 | -2.7 | 7 | 9 | 16 | 0.3 | 0.64 | 0 | i | 0.0

4 of these compounds in a different format.
The line under a structure holds: HNF4A DNA FP	B2AR ag	rRNA inh HTS	rRNA inh HTS OD600	rRNA inh HTS RFP	Ecoli growth	ALR H2O2 inh	FGF22 binding	UCH37 inh
Cc1nc(NC(=O)c2c(-c3ccccc3Cl)noc2C)sc1C
  2.5	3	8	7	4.8	0.7	4	i	3.5
CNc1cnc(-c2ccccc2OC)cn1
  0.1	.	4	16	-2.0	.	.	i	.
O=c1c2[nH]c3ccccc3c2ncn1CCN1CCNCC1
  -1.1	-13	.	.	.	0.66	.	.	-4.6
CC(C)CNC(=O)C1CCN(c2ccc(S(=O)(=O)N3CCOCC3)cc2)CC1
  3.5	-1	.	.	.	0.67	.	.	3.5

Remaining list, next part.
SMILES | HNF4A DNA FP | B2AR ag | rRNA inh HTS | rRNA inh HTS OD600 | rRNA inh HTS RFP | Ecoli growth | ALR H2O2 inh | FGF22 binding | UCH37 inh
CCCNC(=O)C1(C)CCCN(Cc2cccc3ccccc23)C1 (configuration not stated) | 6.3 | . | -21 | -41 | -6.7 | . | . | i | .
CCCC(C(=O)NC(C)(C)C)N(Cc1ccccc1)C(=O)c1snc(C(N)=O)c1N (configuration not stated) | 0.6 | . | -2 | 1 | 0.0 | . | . | i | .
Cc1ccc(NC(=O)COC(=O)c2ccc3c(c2)OCO3)cc1S(=O)(=O)N1CCCCC1 | 1.5 | 6 | -11 | -7 | 7.6 | 0.71 | . | i | 4.9
COc1ccccc1NC(=O)/C(=C/c1ccncc1)NC(=O)c1ccccc1 | -0.9 | 4 | 0 | -2 | -0.8 | 0.71 | -3 | i | 2.9
CC(C)COP(=O)(c1ccc(N(C)C)cc1)C(O)c1cccnc1 (configuration not stated) | -3.2 | 0 | 4 | -2 | 0.8 | 0.59 | . | i | -0.2
COc1ccc(C(O)c2nc(-c3ccc(OC)c(OC)c3)cs2)cc1 (configuration not stated) | 3.4 | . | 3 | -16 | -0.9 | . | . | i | .
CCOC(=O)c1ccc(NCCOC)c([N+](=O)[O-])c1 | -0.9 | -3 | -2 | -1 | 0.2 | 0.69 | . | i | 6.7
CC(C)(C)C(=O)c1c(N)[nH]c(C(=O)c2ccccc2)c1-c1ccc(Cl)cc1Cl | 4.3 | . | -30* | -23* | 2.9* | . | . | i | .
COc1ccc(OC)c(NC(=O)CNC(=O)Cn2c(C)cc3ccccc3c2=O)c1 | -1.8 | -1 | . | . | . | 0.68 | -15 | . | -3.5
COc1ccc(NC(=O)CN(C)CC(=O)NCc2ccc(C)cc2)cc1 | -1.4 | -6 | 12 | 15 | 3.8 | 0.68 | -1 | i | -0.7
NNC(=O)COc1cccc(C(F)(F)F)c1 | -5.3 | -9 | 2 | -3 | -1.2 | 0.72 | 9 | i | 5.2
O=C(CCC(=O)N1CCN(S(=O)(=O)c2ccccc2Cl)CC1)c1ccccc1 | -2.0 | -2 | 1 | -1 | 3.4 | 0.72 | . | i | -0.5
COc1ccccc1N1CCN(C2CC(=O)N(c3cccc(Cl)c3)C2=O)CC1 (configuration not stated) | -0.6 | 2 | -3 | -8 | 4.0 | 0.73 | 40 | i | 3.4
CC(NC(=O)c1cccs1)c1ccc2c(c1)OCO2 (configuration not stated) | -0.6 | -9 | . | . | . | 0.63 | -5 | . | 1.8
Fc1ccc(CSc2ccc3nnc(-c4ccccn4)n3n2)cc1 | 1.9 | -13 | -11 | 7 | -2.7 | . | 8 | i | .
CCOc1ccc(C(=O)CCC(=O)NCC(=O)Nc2ccc(F)c(F)c2F)cc1 | 1.8 | . | 1 | 9 | -3.8 | . | . | i | .
S=C(NCCC1=CCCCC1)Nc1ccc(Cl)cc1 | -1.6 | -15 | -3 | -4 | 3.1 | 0.73 | 1 | i | 1.4
COc1ccc2c(c1)C(=O)N(CCc1ccc(S(=O)(=O)NC(=O)NC3CCCCC3)cc1)C(=O)C2(C)C | 3.6 | -5 | -13 | -30 | -2.3 | 0.71 | 11 | i | -19
CNc1ncnc2c1ncn2[C@H]1CN(Cc2ccc(F)cc2)C[C@@H](CO)O1 | 0.1 | . | 10 | 13 | 2.0 | . | . | i | .
O=C(N/N=C/c1coc2ccccc2c1=O)c1cn(-c2ccccc2)nc1-c1ccc(F)cc1 | -0.4 | 2 | . | . | . | . | -1 | . | .
COc1cccc(C2=NN(C(=O)c3ccco3)C(O)(C(F)(F)F)C2)c1 (configuration not stated) | -1.4 | -3 | 10 | 2 | -1.7 | 0.69 | -4 | i | 3.4
Cc1cc(C)c(S(=O)(=O)NCC23C=CC(O2)C2C(=O)N(c4ccccc4)C(=O)C23)c(C)c1 (configuration not stated) | 1.1 | 2 | . | . | . | 0.7 | . | . | 2.8
COc1cc(OC)cc(C(=O)NCCc2cnc[nH]2)c1 | 7.5 | 1 | 4 | -3 | -1.6 | 0.67 | -5 | i | 0.5
CC(C)(O)C#CC#CCN1CCOCC1 | 1.6 | -5 | . | . | . | 0.69 | 1 | . | -0.8
Cc1ccc(O)c(CNc2cnc3ccccc3c2)c1 | -3.3 | 6 | -45 | -60 | -6.2 | 0.71 | 98* | . | -66

Later entries
SMILES | HNF4A DNA FP | B2AR ag | rRNA inh HTS | rRNA inh HTS OD600 | rRNA inh HTS RFP | Ecoli growth | ALR H2O2 inh | FGF22 binding | UCH37 inh
CN(CCC#N)C(=O)COC(=O)c1ccccc1C(=O)c1ccc(Cl)c([N+](=O)[O-])c1 | 0.7 | 25 | 6 | 12 | -2.5 | 0.71 | 22 | i | 5.7
NS(=O)(=O)c1cccc(NC(=O)COC(=O)CCc2ccccc2)c1 | 1.1 | 5 | 5 | 3 | -1.5 | 0.65 | -3 | i | 5.5
Fc1ccc(-c2cn3cc(C(F)(F)F)cc(Cl)c3n2)cc1 | -6.3 | -25 | . | . | . | 0.67 | -4 | . | -6.0
COc1ccc(C(=O)Nc2ccc(Cl)cc2C(=O)NCCN2CCOCC2)cc1 | 1.7 | -8 | . | . | . | 0.73 | -5 | . | -0.6
CC1(C)OCC(N)(CO)CO1 | -1.1 | . | 2 | 6 | -1.0 | . | . | i | .
NNC(=S)Nc1ccccc1Cl | 1.4 | 3 | -9 | -1 | 1.7 | . | 30 | i | .
CC(C)(C)c1ccc(OCCC(=O)OCC(=O)NC2CC2)cc1 | -1.2 | -1 | -19 | -60 | 4.7 | 0.68 | . | i | 0.0
Cc1cc(N2C(=O)C(O)=C(C(=O)c3cc4ccccc4o3)C2c2ccc(OC(C)C)cc2)no1 (configuration not stated) | 0.2 | 4 | -4 | -8 | -1.2 | 0.71 | 96* | i | -4.8
CC(=O)Cc1nsc(NC(=O)c2ccc(-c3ccc(Cl)c(Cl)c3)o2)n1 | 3.5 | 2 | -39 | -60 | -6.7 | 0.63 | 6 | i | -8.9
O=C(NCC1CCCO1)c1cn(Cc2ccccc2Cl)nc1-c1ccccc1 (configuration not stated) | -1.9 | -9 | -1 | 5 | 1.1 | 0.68 | . | . | 5.1

4 entries already listed, sorted by their value in rRNA inh HTS, smallest number first:
Structure	HNF4A DNA FP	B2AR ag	rRNA inh HTS	rRNA inh HTS OD600	rRNA inh HTS RFP	Ecoli growth	ALR H2O2 inh	FGF22 binding	UCH37 inh
CC(=O)Cc1nsc(NC(=O)c2ccc(-c3ccc(Cl)c(Cl)c3)o2)n1	3.5	2	-39	-60	-6.7	0.63	6	i	-8.9
Cc1cc(N2C(=O)C(O)=C(C(=O)c3cc4ccccc4o3)C2c2ccc(OC(C)C)cc2)no1 (configuration not stated)	0.2	4	-4	-8	-1.2	0.71	96*	i	-4.8
CC1(C)OCC(N)(CO)CO1	-1.1	.	2	6	-1.0	.	.	i	.
NS(=O)(=O)c1cccc(NC(=O)COC(=O)CCc2ccccc2)c1	1.1	5	5	3	-1.5	0.65	-3	i	5.5

An excerpt (hit frequency here may not be typical).
